Screening data (PubChem BioAssay)
Rce1 inhib: inhibitors of yeast Ras-converting enzyme | Q03530 | yeast membranes, quenched prenylated peptide cleavage fluorescence | calls only | 290,000 tested, 0.27% active | AID 2563;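 active = fall in fluorescence gain of 50% or more versus controls, with final raw signal at or below 3038400; inconclusive = same 50% fall but final raw signal above 3038400; inactive = fall in fluorescence gain under 50%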;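 also: plate controls were neutral control wells for no effect and wells lacking membranes for full effect; tested at 10 µM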
Target sequence (Q03530 whole entry, looked up): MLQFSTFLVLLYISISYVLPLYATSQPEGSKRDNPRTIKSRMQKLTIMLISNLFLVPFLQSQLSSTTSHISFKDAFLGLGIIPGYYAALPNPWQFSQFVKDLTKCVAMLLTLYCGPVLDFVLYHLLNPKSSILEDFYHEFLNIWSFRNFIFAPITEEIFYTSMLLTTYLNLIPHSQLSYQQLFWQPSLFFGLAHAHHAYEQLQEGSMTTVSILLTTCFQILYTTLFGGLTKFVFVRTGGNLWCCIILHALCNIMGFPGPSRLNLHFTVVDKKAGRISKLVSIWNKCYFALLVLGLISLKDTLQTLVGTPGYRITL
UUG fidelity: alters start codon recognition fidelity in yeast | AID 602363 | 350,000 tested, 0.13% active | activity score, % at 18.7 µM | S. cerevisiae UUG-firefly luciferase reporter, luminescence/redox ratio;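 active = replicate mean at a twofold rise or more, about +100% in these data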;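 also: firefly luciferase made from a UUG start codon reports start codon fidelity; reporter light over untreated wells divided by growth signal over untreated wells; some hits fall short of that in this replicate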
MT1-MMP act inh: inhibitors of human MT1-MMP activation | 360,000 tested, 0.061% active | HT1080 RFP-PRO-GFP cells, GFP/RFP ratio fluorescence, overnight; percent of plate control window, DMSO zero | P50281 | GFP/RFP ratio change, % at 20 µM;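 active = GFP/RFP ratio change of at least 30% with cell ATP level not reduced by more than half and red fluorescence within 50% of control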; also: strong numbers were not always called active
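Material: RFP-PRO-GFP reporter HT1080 cells. Dosing: single-point 20 µM compound, 1% DMSO. Controls: DMSO and RFP-L50D-GFP cell wells. Timing: cells overnight before dosing, compound overnight, 37 °C, 5% CO2. Measure: GFP/RFP fluorescence ratio.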
Env fusion inh: inhibitors of HIV Env-mediated cell fusion; HeLa-JRFL Env/CEM21 cell fusion, luciferase; inhibition, % at 12.3 µM; 360,000 tested, 1.1% active; AID 651610;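 active = mean replicate inhibition score of at least 50 and every replicate individually at or above 50; inconclusive = only one of the two criteria met; inactive = mean below 50 and not all replicates reaching 50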;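 also: 0% = plate neutral controls and 100% = maraviroc near 300 nM; one replicate is shown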
eIF4H FP inh: inhibitors of RNA binding by human eIF4H; eIF4H fluorescence polarization binding assay; inhibition, % at 35 µM; 290,000 tested, 0.94% active;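 active = 50% or more with normal probe brightness, or confirmed in later tests; inconclusive = above 50% with abnormal brightness, or retests that disagree; inactive = below 50% or failed in later tests; about a fifth of its hits are not listed in these tables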;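 also: calls also rest on retests at 20 µM and on dose response follow-up; 0% = protein and probe with vehicle and 100% = probe without protein; strong numbers were not always called active; many hits fall short of the cut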
CSC inhib: blocks cancer stem cells; cancer stem cell-like cells viability, luminescence; inhibition, % at 7.5 µM; 300,000 tested, 1.1% active; AID 2717;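 active = mean at 75% or more and at least half the replicates too; inconclusive = mean and replicates disagree; tested in HMLE shEcad cells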;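 also: 0% = median of negative and 100% = median of positive control wells; the first replicate is given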
PABP FP inh: PABP-poly(A) binding inhibition. PABP-poly(A) RNA binding, fluorescence polarization. inhibition, % at 35 µM. 290,000 tested, 1% active. AID 2014;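 active = 50% or more with normal probe brightness, or confirmed in later tests; inconclusive = above 50% with abnormal brightness, or retests that disagree; inactive = below 50% or failed in later tests; about a fifth of its hits are not listed in these tables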;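 also: calls also rest on retests at 20 µM and on dose response follow-up; controls were probe without protein and protein plus probe with vehicle; some compounds called inactive have numbers as strong as hits; many hits fall short of the cut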
Target sequence (P11940 whole entry, looked up): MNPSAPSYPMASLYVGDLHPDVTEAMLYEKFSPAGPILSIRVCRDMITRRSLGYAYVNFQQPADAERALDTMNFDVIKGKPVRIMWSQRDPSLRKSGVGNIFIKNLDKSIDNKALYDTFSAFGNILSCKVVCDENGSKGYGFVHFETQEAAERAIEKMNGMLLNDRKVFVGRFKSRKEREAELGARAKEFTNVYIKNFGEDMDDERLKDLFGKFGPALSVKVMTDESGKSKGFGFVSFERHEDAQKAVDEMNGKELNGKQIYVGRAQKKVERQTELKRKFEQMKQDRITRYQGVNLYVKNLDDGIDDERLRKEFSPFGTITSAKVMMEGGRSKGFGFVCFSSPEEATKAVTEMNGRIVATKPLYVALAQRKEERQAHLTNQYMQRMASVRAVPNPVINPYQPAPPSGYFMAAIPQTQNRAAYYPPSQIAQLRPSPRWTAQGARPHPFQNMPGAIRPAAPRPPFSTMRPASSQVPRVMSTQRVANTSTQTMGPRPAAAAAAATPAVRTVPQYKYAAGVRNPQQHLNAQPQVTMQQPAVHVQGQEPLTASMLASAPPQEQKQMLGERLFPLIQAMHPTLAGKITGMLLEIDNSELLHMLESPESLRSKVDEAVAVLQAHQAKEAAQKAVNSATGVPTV
MT1-MMP act inh RFP: further read-out of MT1-MMP act inh, marked with its call; RFP signal change, %; measured here: RFP expression control read;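 0 = vehicle wells; hits needed this value within 50% of zero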
An asterisk follows results filed as active; i = inactive; ? = inconclusive; · = no result given; & = joins results of further samples; [ ] = another dose, or the depositor's remark.

SMILES	Rce1 inhib	UUG fidelity	MT1-MMP act inh	MT1-MMP act inh RFP	Env fusion inh	eIF4H FP inh	CSC inhib	PABP FP inh
Cc1noc(C)c1NC(=O)N(C)C[C@H]1Oc2c(cccc2N(C)C)C(=O)N([C@H](C)CO)C[C@@H]1C	·	-20&-16	0	2	6[16.7 µM]	·	·	·
CCCCNC(=O)C(=O)N/N=C/c1ccc(C(=O)OC)cc1	i	·	-5	-7	12	-11	-8	-1
COc1ccc(-c2c(C(C)=O)c(C)nc3sc4c(=N)n(N)cnc4c23)cc1	i	·	-10	-4	24	0	1	2
C=CC[N+](C)(C)CCCNC(=O)/C=N/O	i	·	-5	8	12	18	1	15
CC[n+]1c(/C=C/N(C)c2ccccc2)oc2ccc(F)cc21	i	-10	-4	1	18	31	8	5
CSc1cccc(NC(=S)N(CCN(C)C)C(C)c2ccncc2)c1 (stereo unspecified)	i	-43	2	4	20	-11	1	7
O=C(CSc1nccc(=O)[nH]1)c1c[nH]c2ccccc12	i	-11	-1	6	6	-5	5	4
CC(C)CC(C(=O)NC1CCCC1)N(Cc1cccs1)C(=O)c1snc(C(N)=O)c1N (stereo unspecified)	i	4	6	4	13	8	-5	-2
CCCC(=Nc1ccc(N)cc1)C1=C(O)C(C(=O)OC)C(C)(C)CC1=O (stereo unspecified)	i	-6	25	21	-10	57*	·	64*
CC1(C)Cc2c(ccc3ccccc23)C(NNC(=O)c2cccnc2)=N1	i	-12	2	2	·	1	-12	-3
O=C(/C=C/c1ccc(O)cc1)c1ccccc1	i	·	7	0	-75	-4	39	1
CC(O)CNc1ncnc2nc[nH]c12 (stereo unspecified)	i	-13	-5	-3	14	-2	-25	-2
Cc1ccc(C(=O)C2CCN(C(=S)NCCCOC(C)C)CC2)cc1	i	-18	4	6	7	-13	-5	0
COc1ccc(NC(=O)C(OC)c2ccccc2)cc1Cl (stereo unspecified)	i	·	3	-1	·	-3	-5	2
COc1cc(OC)cc(C(=O)NC2CCN(C(=O)N3c4ccccc4Sc4ccccc43)CC2)c1	i	·	-11	-17	-42	-3	55	-7
COc1ccc(OC)c(S(=O)(=O)NNC(=S)Nc2ccc3c(c2)OCO3)c1	i	-29	-2	0	-8	6	-7	5
Cc1ccc(Cn2ncc3c(N4CCN(CC#N)CC4)ncnc32)cc1	i	·	7	-2	-4	-5	18	-5
CCOC(=O)c1ccccc1NC(=O)CSc1nc2ccccc2c(=O)[nH]1	i	·	2	0	-3	-2	6	11
O=C(O)CCCCCCCCCCC1CCC(O)C1O (stereo unspecified)	·	-37	3	7	12	·	·	·
COc1ccc(-c2nc3cc(C)ccn3c2NCC2CCCO2)cc1OC (stereo unspecified)	i	-5	-3	-1	10	·	-20	·

Reprinted at random: 2 compounds from above
SMILES	Rce1 inhib	UUG fidelity	MT1-MMP act inh	MT1-MMP act inh RFP	Env fusion inh	eIF4H FP inh	CSC inhib	PABP FP inh
CSc1cccc(NC(=S)N(CCN(C)C)C(C)c2ccncc2)c1 (stereo unspecified)	i	-43	2	4	20	-11	1	7
COc1ccc(NC(=O)C(OC)c2ccccc2)cc1Cl (stereo unspecified)	i	·	3	-1	·	-3	-5	2

Of the compounds above, these contain an aryl thioether with sulfur outside any ring:
SMILES	Rce1 inhib	UUG fidelity	MT1-MMP act inh	MT1-MMP act inh RFP	Env fusion inh	eIF4H FP inh	CSC inhib	PABP FP inh
CSc1cccc(NC(=S)N(CCN(C)C)C(C)c2ccncc2)c1 (stereo unspecified)	i	-43	2	4	20	-11	1	7
O=C(CSc1nccc(=O)[nH]1)c1c[nH]c2ccccc12	i	-11	-1	6	6	-5	5	4
CCOC(=O)c1ccccc1NC(=O)CSc1nc2ccccc2c(=O)[nH]1	i	·	2	0	-3	-2	6	11

(listing goes on)
SMILES	Rce1 inhib	UUG fidelity	MT1-MMP act inh	MT1-MMP act inh RFP	Env fusion inh	eIF4H FP inh	CSC inhib	PABP FP inh
COc1ccccc1NC(=O)c1c(NC(=O)CCC(=O)O)sc2c1CCCCC2	i	-6	-13	5	2	11	-16	13
CCOC(=O)c1c(-c2ccc(C)o2)csc1NC(=O)CSc1nnnn1-c1ccccc1	i	-31	-7	1	-8	22	2	3
O=c1cc(-c2ccco2)oc2c1ccc1ccccc12	i	-2	-17	5	-118	10	8	18
CCOC(=O)c1ccc(N/C=C/C(=O)c2ccc(OC)c(OC)c2)cc1	i	-16	7	-3	-4	2	·	10
CCCNC(=O)C1(C)CCN1C(=O)Cc1ccc(C(C)(C)C)cc1 (stereo unspecified)	·	-10	-1	0	27	·	·	·
Cc1cc(CN2CCCC(C(=O)Nc3ccc(-c4nc5ccccc5[nH]4)cc3)C2)n[nH]1 (stereo unspecified)	i	-18	9	5	-10	-5	2	-8
Cc1cc(C)n2nc(SCc3cccc(F)c3)nc2n1	i	-14	-2	4	-36	-6	-7	-2
COc1ccc(-c2cc(CN3C(=O)c4ccccc4C3=O)on2)cc1	i	-2	9	1	·	·	-13	·
O=C(NCCc1ccc(Cl)cc1)c1cccc(S(=O)(=O)N2CCCC2)c1	·	-9	3	3	-9	·	·	·
Nc1nnc(CCCCCCCCCCc2nnc(N)s2)s1	i	·	1	-8	27	6	-8	-4
O=C(Cn1ccc2cc(S(=O)(=O)N3CCCCC3)ccc21)NCc1ccccc1F	i	1	1	-6	9	-10	-13	-9
Cc1ccc(SCC(=O)OCC(=O)NCCc2ccc(S(N)(=O)=O)cc2)c(C)c1	·	-11	-1	4	-28	·	2	·
O=C(CCC1CCN(Cc2ccccc2Cl)CC1)NC1CC1	i	-6	0	2	-6	3	1	-2
CCN(CC)Cc1c(O)ccc2c(=O)c(-c3ccccc3Cl)coc12	i	-17	0	2	0	-3	-9	8
CCc1ccc(NC(=O)COc2ccc(F)cc2C(=O)c2cnn(-c3ccccc3)c2)cc1	i	·	0	-2	-8	2	30	32
CCOCCCNC(=O)CCSc1ccc(C)cc1	i	-3	-1	0	-3	-1	0	-13
COCC(=O)N(C)C[C@H]1Oc2ncc(Br)cc2C(=O)N([C@@H](C)CO)C[C@H]1C	·	-14&-13&-1	2	5	-8	·	·	·
CCOCCOC(=O)c1ccc(-n2cnc(C)n2)nc1	i	·	0	6	17	4	-16	-10
O=C(O)Cc1ccc(NC(=O)c2cccs2)cc1	i	-8	-2	2	-37	5	5	-3
CCOC(=O)N1CCN(C(=O)CN(c2cccc(C)c2)S(=O)(=O)c2ccc(C)cc2)CC1	i	1	0	3	·	-4	-16	-10

Profiles from above. Values in the order: Rce1 inhib | UUG fidelity | MT1-MMP act inh | MT1-MMP act inh RFP | Env fusion inh | eIF4H FP inh | CSC inhib | PABP FP inh
`Cc1cc(C)n2nc(SCc3cccc(F)c3)nc2n1` in the list: i | -14 | -2 | 4 | -36 | -6 | -7 | -2
`Nc1nnc(CCCCCCCCCCc2nnc(N)s2)s1` in the list: i | · | 1 | -8 | 27 | 6 | -8 | -4
`CCOCCCNC(=O)CCSc1ccc(C)cc1` in the list: i | -3 | -1 | 0 | -3 | -1 | 0 | -13

Rewritten with values under each structure: part of the list above.
Values run as follows: Rce1 inhib | UUG fidelity | MT1-MMP act inh | MT1-MMP act inh RFP | Env fusion inh | eIF4H FP inh | CSC inhib | PABP FP inh
> Nc1nnc(CCCCCCCCCCc2nnc(N)s2)s1
 : i | · | 1 | -8 | 27 | 6 | -8 | -4
> O=c1cc(-c2ccco2)oc2c1ccc1ccccc12
 : i | -2 | -17 | 5 | -118 | 10 | 8 | 18

(more compounds)
SMILES	Rce1 inhib	UUG fidelity	MT1-MMP act inh	MT1-MMP act inh RFP	Env fusion inh	eIF4H FP inh	CSC inhib	PABP FP inh
COc1cccc(-c2c(C(=O)N/N=C/c3ccoc3)nnn2-c2nonc2N)c1	i	-3	-1	7	-15	0	-15	11
C=CCSc1nc2ccccc2c2nc(-c3ccccc3)nn12	i	·	-2	-7	·	5	0	-11
COc1ccc(/C=C2\SC(=S)N(CCC(=O)Nc3cccc(O)c3)C2=O)cc1	i	-8	0	-2	-15	2	·	-9
COc1ccccc1Cc1c(-c2ccc(OC)c(OC)c2)nc2c(C)cc(Br)cn12	·	13	-4	0	4	·	·	·
CCOC(=O)Cc1csc(NC(=O)c2cccc(N3C(=O)CCC3=O)c2)n1	i	·	4	3	·	-1	6	-7
CC1CCN(c2c(NCC3CCC(C(=O)Nc4ccccn4)CC3)c(=O)c2=O)CC1 (stereo unspecified)	i	-8	-4	0	-3	6	-7	4
COc1ccc(NC(=O)C(NC(=O)c2ccccc2)C(C)C)cc1 (stereo unspecified)	i	-13	-9	-4	-1	2	-19	-3
OCCCn1c(C2CCCN2c2nc(-c3ccc(Cl)cc3)cs2)nc2cc(C(F)(F)F)ccc21 (stereo unspecified)	i	-30	-4	-6	-1	·	-7	·
CCc1cc2c(SCC(=O)c3ccc(C)cc3)ncnc2s1	i	-8	-1	-1	·	8	-16	7
O=C(/C=C/c1cccs1)c1cc(Cl)ccc1O	i	-6	-9	-3	12	-8	-9	3
Cc1cc(C)nc(SCc2cn3cc(Cl)ccc3n2)n1	i	8	-2	2	·	8	·	37
CCOC(=O)N1CCN(CC(O)COC2CC(C)CC(C)(C)C2)CC1 (stereo unspecified)	i	1	2	2	·	3	-13	6
COc1ccc(C)c(S(=O)(=O)Nc2ccc(OCC(=O)O)cc2)c1	i	-18	-3	8	-18	1	-4	14
Cn1c(SCC(=O)n2c3c(c4ccccc42)CCCC3)nnc1-c1ccccc1	i	-21	2	7	6	-9	3	-4
O=C(CSc1ncn(-c2ccccc2)n1)Nc1ccc(Br)cn1	i	-21	3	0	-6	-11	-5	-1
COc1ccccc1CNC(=O)COC(=O)c1nc(Cl)ccc1Cl	i	-10	12	5	8	·	-15	·
COc1ccc2[nH]c(C(=O)O)c(CCN3C(=O)c4cccc([N+](=O)[O-])c4C3=O)c2c1	·	-15	-3	7	-10	-12	-9	4
CCNC(=O)NC(=O)CSc1nc2ccccc2n1CC(C)C	i	·	1	-2	·	-4	2	-5
CCN(CC)CCCN=Cc1c(O)n(-c2ccccc2C)c(=O)c2ccccc12	i	·	-3	1	-3	-3	14	13
Cc1cccn2cc(-c3ccc(F)cc3)nc12	i	-19	-1	-4	-442	-5	-3	-2
CC(O)C(O)C(O)C(O)C1NCCS1 (stereo unspecified)	i	-11	6	6	·	-13	-4	4
CCOC(=O)c1c[nH]n(-c2ccc(C)cc2)c1=O	i	-24	2	6	0	3	·	7
CCCCN(C(=O)NC(=O)Nc1cc(C)ccc1C)S(C)(=O)=O	i	-22	2	4	·	-17	-9	-4
CC(=O)NN=C(C)c1ccc(NC(=O)C2CC2)cc1	·	-9	1	4	-10	·	·	·
COc1ccc2nc(SCC(=O)Nc3nccs3)[nH]c2c1	i	·	1	-1	-12	0	-8	-11
CC1OC(OCC2OC(Oc3c(-c4ccc(O)cc4)oc4cc(O)cc(O)c4c3=O)C(O)C(O)C2O)C(O)C(O)C1O (stereo unspecified)	·	3	1	0	·	?	1	?
CCn1c(SCC(=O)Nc2nc(C)c(C(=O)OC)s2)nnc1C(C)C	i	-14	0	5	-73	-4	-11	-2
Cc1ccc(C)c(NC(=O)CCc2ccc(C)o2)c1	i	-6	4	-4	-13	-2	-9	9
CCn1cc(S(=O)(=O)c2cccc(C)c2)c(=O)c2cc(F)c(N3CCN(C)CC3)cc21	i	-2	0	7	2	-17	-14	-6
O=[N+]([O-])c1ccc(N2CCN(c3ccc(Cl)nn3)CC2)c(Cl)c1	i	-11	8	-7	-28	-1	·	10
O=C(CSc1nnc(Cn2c(=O)sc3ccccc32)n1-c1ccccc1)NCc1ccco1	·	0	-1	2	-315	10	-27	5
